# Screening results deposited in PubChem BioAssay by ICCB-Longwood Screening Facility, Harvard Medical School.
# PV pol inh – inhibitors of poliovirus RNA polymerase binding and polymerization. P03300. 0.66% of 150,000 active. poliovirus polymerase elongation, fluorescence polarization; hits give low values. AID 588519. % elongation, % (compound at 16.7 µg/mL); in the data active = % elongation below about 90%; note: some results filed as inactive read as strong as hits
# Target sequence (P03300 1749-2209 limits assumed): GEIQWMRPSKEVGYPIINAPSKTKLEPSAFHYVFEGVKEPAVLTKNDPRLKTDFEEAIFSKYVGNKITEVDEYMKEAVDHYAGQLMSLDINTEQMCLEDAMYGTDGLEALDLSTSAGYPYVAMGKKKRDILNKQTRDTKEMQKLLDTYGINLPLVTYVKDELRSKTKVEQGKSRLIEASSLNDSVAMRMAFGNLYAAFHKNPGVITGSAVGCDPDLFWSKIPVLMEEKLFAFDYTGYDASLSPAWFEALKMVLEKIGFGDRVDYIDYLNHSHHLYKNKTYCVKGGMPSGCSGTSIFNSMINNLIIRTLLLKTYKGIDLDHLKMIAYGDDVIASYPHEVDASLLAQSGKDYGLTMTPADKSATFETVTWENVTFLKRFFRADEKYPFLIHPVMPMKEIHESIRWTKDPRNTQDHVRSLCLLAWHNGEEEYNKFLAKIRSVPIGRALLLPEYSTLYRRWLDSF
# PV pol inh intensity – second read-out of PV pol inh, no call of its own (marks repeat the call); % elongation; measured here: total intensity read-out; formula for this scale not given here;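 total fluorescence in place of polarization; lower means less elongation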
# Active calls of the source: *. Only part of the results is shown; rates above refer to the full screens.
# Every second line gives: PV pol inh, PV pol inh intensity
1. COc1ccc(-n2c(SCC(=O)NC3CCCCC3)nc3c([nH]c4ccccc43)c2=O)cc1
    104, 110
2. Cc1ccc(OCC(=O)Nc2ccc(S(=O)(=O)Nc3cc(C)nc(C)n3)cc2)c(Br)c1
    101, 103
3. CCCCn1c(NCc2cc(Cl)ccc2O)nc2ccccc21
    102, 113
4. CCOc1ccc(-n2nc3ccc(NC(=O)c4ccc(OC)c(Cl)c4)cc3n2)cc1
    104, 107
5. COC(=O)c1c(NC(=O)c2ccc(C(C)(C)C)cc2)sc2c1CCC(C)C2 (stereo unspecified)
    103, 97
6. Cc1cccc(N2CCN(C(=O)CCc3c(C)nc4c(c3C)c(=O)n(C)c(=O)n4C)CC2)c1C
    104, 105
7. Cc1cccc(CNC(=O)c2cc3cc(S(=O)(=O)N4CCCCC4)ccc3n2C)c1
    113, 118
8. CCOc1ccccc1CNCc1c(C(=O)O)c(C)n(Cc2ccc(C)cc2)c1C
    107, 110
9. COc1ccccc1NC(=O)CSc1nnc(NC(=O)Nc2ccc(C)cc2)s1
    105, 103
10. CCc1ccc(-n2c(=O)c3sc4ccccc4c3n(CC(=O)NC3CCCC3)c2=O)cc1
    107, 111

# Reprinted at random: four compounds from above.
# Every second line gives: PV pol inh, PV pol inh intensity
5. COC(=O)c1c(NC(=O)c2ccc(C(C)(C)C)cc2)sc2c1CCC(C)C2 (stereo unspecified)
    103, 97
9. COc1ccccc1NC(=O)CSc1nnc(NC(=O)Nc2ccc(C)cc2)s1
    105, 103
10. CCc1ccc(-n2c(=O)c3sc4ccccc4c3n(CC(=O)NC3CCCC3)c2=O)cc1
    107, 111
6. Cc1cccc(N2CCN(C(=O)CCc3c(C)nc4c(c3C)c(=O)n(C)c(=O)n4C)CC2)c1C
    104, 105

# Additional structures:
# Every second line gives: PV pol inh, PV pol inh intensity
11. O=C(NC1(C(F)(F)F)C(=O)Nc2c1c(=O)[nH]c(=O)n2-c1ccccc1)c1ccccc1 (stereo unspecified)
    103, 106
12. Cc1[nH]c2ccccc2c1C(=O)C(=O)NC1CC(=O)N(c2ccccc2)C1 (stereo unspecified)
    112, 112
13. O=S(=O)(c1ccccc1)c1nnn2c1nc(NC1CCCCC1)c1sccc12
    100, 106
14. Cc1cccc(CN2CCC(CNC(=O)Cn3ncc4c([nH]c5ccc(C)cc54)c3=O)CC2)c1
    102, 95
15. COC(=O)c1sccc1S(=O)(=O)N(CC(=O)NCc1ccccc1)c1ccc(C)c(C)c1
    103, 109
16. COc1ccc(-n2nc3c(c2NC(=O)C(=O)NCc2ccccc2)CSC3)cc1
    102, 101
17. Oc1ccccc1-c1nc2cnccn2c1Nc1ccc(Cl)cc1
    108, 111
18. CCc1cccc(NC(=O)c2cc(-c3ccccc3)n[nH]2)c1
    111, 108
19. COc1cc2ccccc2cc1C(=O)N1CCN(c2nc3c(F)cccc3s2)CC1
    108, 108
20. CCN(CC)C(=O)c1sc(NC(=O)C(C)Sc2nc(-c3ccccc3)cc(C(F)(F)F)n2)c(C(=O)OC)c1C (stereo unspecified)
    84*, 82*

# Full records from above:
# COc1ccc(-n2nc3c(c2NC(=O)C(=O)NCc2ccccc2)CSC3)cc1 in the list: PV pol inh: 102; PV pol inh intensity: 101
# Cc1cccc(CN2CCC(CNC(=O)Cn3ncc4c([nH]c5ccc(C)cc54)c3=O)CC2)c1 in the list: PV pol inh: 102; PV pol inh intensity: 95
# CCN(CC)C(=O)c1sc(NC(=O)C(C)Sc2nc(-c3ccccc3)cc(C(F)(F)F)n2)c(C(=O)OC)c1C (stereo unspecified) in the list: PV pol inh: 84*; PV pol inh intensity: 82*

# Next section.
# Every second line gives: PV pol inh, PV pol inh intensity
21. CCCN(C(=O)CCc1nc(-c2ccc(C)cc2)no1)c1ccc(OCC)cc1
    102, 98
22. COc1ccc(OC)c(NC(=O)Cn2cnc3sc(C)c(S(=O)(=O)N4CCN(c5ccccc5OC)CC4)c3c2=O)c1
    108, 111
23. COc1ccc(S(=O)(=O)NCCc2sc(-c3cccc(F)c3)nc2C)cc1
    104, 102
24. CCc1ccc(NC(=O)CSc2nc(C)c(C(=O)Nc3ccccc3)c(-c3ccc(OC)c(OC)c3)c2C#N)cc1
    107, 109
25. COc1ccc(-c2nc(CN3CCC(C(=O)NCCN(CC(C)C)CC(C)C)CC3)c(C)o2)cc1OC
    108, 106
26. Nc1ccc2nc(-c3ccc(O)cc3)sc2c1
    94, 92
27. Cc1ccc2oc(C(=O)Nc3cccc(-c4nc5ccccc5s4)c3)c(C)c2c1
    96, 97
28. CC(C)(C)OC(=O)N1CCC(c2c(C(=O)N3CCCCC3)cnn2-c2ccc(F)cc2F)CC1
    114, 109
29. O=S(=O)(c1cccc(F)c1)N1CCC(Oc2ccc(-n3cnnn3)cc2)CC1
    109, 101
30. N#Cc1nc(-c2ccc(COc3ccccc3)o2)oc1N1CCCCC1
    110, 111
31. CC(C)Oc1ccc(C(=O)N2CCCCC2CCN2CCCCC2)cc1 (stereo unspecified)
    105, 104
32. COc1ccc(S(=O)(=O)N2CCC(n3c(C(F)(F)F)nc4cccnc43)CC2)cc1OC
    100, 105
33. COc1ccc(NCc2cc3ccc(OC)cc3n(CC(=O)Nc3cccc(OC)c3)c2=O)cc1
    100, 102
34. COc1ccc(C(=O)Nc2ccccc2-c2nc3ccccc3s2)c(OC)c1
    99, 96
35. Cc1cc(F)ccc1NC(=O)CCn1nc(C)c(S(=O)(=O)N2CCCCC2)c1C
    105, 106
36. CCOc1ccc(CNC(=O)c2cnc3sc(N4CCOCC4)nn3c2=O)cc1
    108, 107
37. CCOc1ccc(CNC(=O)C2CCN(S(=O)(=O)c3cn(C)cn3)CC2)cc1
    107, 104
38. COc1cccc(CNC(=O)c2cccc(-n3c(C)nc4cccnc43)c2)c1OC
    115, 110
39. CC(C)c1ccc(OCC(=O)Nc2c(Cl)ccc3nsnc23)cc1
    109, 107
40. Cc1ccccc1OCc1ccc(-c2nc(C#N)c(N3CCCCC3)o2)o1
    112, 106
41. Cc1ccc(CNC(=O)CCCn2c(=O)c3ccccc3n(Cc3ccc(Cl)cc3)c2=O)cc1
    107, 108
42. COc1cc(C2CC(=O)N(Cc3cccc(F)c3)c3ccccc3S2)cc(OC)c1OC (stereo unspecified)
    104, 103
43. CCc1ccc(-n2c(=O)c3cccnc3n2CC(=O)NCc2ccc(F)cc2)cc1
    111, 115
44. CCOC(=O)C1CCN(S(=O)(=O)c2ccc3c(c2)N(C)C(=O)CC(=O)N3C)CC1
    107, 120
45. CCn1c(=O)c2cc(C(=O)N3CCN(c4cccc(Cl)c4)CC3)sc2c2ccccc21
    108, 110
46. COC(=O)c1ccc(NC(=O)CC2C(=O)N(c3ccccc3)C(=O)N2Cc2cccs2)cc1 (stereo unspecified)
    106, 108
47. COc1ccc(C(=O)NCC(c2ccco2)S(=O)(=O)c2ccccc2)cc1 (stereo unspecified)
    103, 108
48. Cc1ccc(NC(=O)CN(CCc2ccccc2)S(=O)(=O)c2ccccc2)c(C)c1
    104, 106
49. Cc1cccc(NC(=O)c2cc(S(=O)(=O)N3CCCCC3)c[nH]2)c1C
    112, 108
50. COc1cc(-c2nc(Cn3nnc(C(=O)Nc4cc(C)cc(C)c4)c3C)c(C)o2)cc(OC)c1OC
    101, 104
51. CCN(Cc1ccccc1)C(=O)c1cc2c(=O)[nH]c3ccc(C)cc3c2s1
    107, 106
52. CCCCNS(=O)(=O)c1ccc(NC(=O)c2c(-c3ccccc3)noc2C)cc1
    105, 102
53. Cc1cccc(CSc2nc3c([nH]c4ccccc43)c(=O)n2C)c1
    108, 112
54. COc1ccc(C2c3cccn3CCN2S(=O)(=O)c2ccc([N+](=O)[O-])cc2)cc1 (stereo unspecified)
    104, 100
55. COc1cccc(N2CCN(C(=O)CN3CCSc4ccccc43)CC2)c1
    112, 117
56. Cc1ccc(C)c(CNC(=O)C2CCN(c3nc4ccccc4nc3C(F)(F)F)CC2)c1
    108, 111
57. CCOC(=O)c1cccc(NC(=O)c2cc3c(=O)n(C)c4ccccc4c3n2C)c1
    106, 110
58. CCn1c(SCc2cccc(Br)c2)nnc1-c1nonc1NC(C)=O
    101, 89
59. Cc1ccc2c(c1)c1c(c(=O)n(Cc3ccccc3)c(=O)n1CC(=O)NCc1ccccc1Cl)n2C
    105, 110
60. Cc1nn(-c2ccccc2)c(OC(=O)C(C)(C)C)c1Sc1ccccc1
    108, 111
61. Cc1cccc(N2CCN(C(=O)CN3C(=O)COc4ccc(S(=O)(=O)N5CCC(C)CC5)cc43)CC2)c1C
    101, 104
62. CCOc1cc(C2Nc3ccccc3-c3nnc(SCc4ccccc4)nc3O2)ccc1OC (stereo unspecified)
    104, 109
63. COc1ccc(OC)c(CNS(=O)(=O)c2ccc3c(c2)oc(=O)n3C)c1
    108, 113
64. COc1ccc(NC(=O)C2=CC(c3ccco3)=NS(=O)(=O)N2C)cc1
    108, 100
65. CCc1cccc(NC(=O)CSc2nccn2C)c1
    106, 110
66. CCOc1ccccc1N(CC)C(=O)c1cc2c(=O)n(CC)c3ccccc3c2s1
    102, 95
67. COC(=O)c1ccc(NC(=O)CN(Cc2ccccc2)S(=O)(=O)c2ccc(C)cc2)cc1
    106, 110
68. COc1ccc(C)cc1NC(=O)c1ccc2c(c1)nnn2C1CCCC1
    102, 110
69. CCc1cccc(C)c1NC(=O)CN1CCCN(Cc2ccccc2Cl)S1(=O)=O
    104, 107
70. COc1cccc(CNc2ncnc3onc(C)c23)c1
    103, 101

# Some of the entries above in another layout:
entry	SMILES	PV pol inh	PV pol inh intensity
58	CCn1c(SCc2cccc(Br)c2)nnc1-c1nonc1NC(C)=O	101	89
38	COc1cccc(CNC(=O)c2cccc(-n3c(C)nc4cccnc43)c2)c1OC	115	110
43	CCc1ccc(-n2c(=O)c3cccnc3n2CC(=O)NCc2ccc(F)cc2)cc1	111	115

# Values in list order from the list.
# PV pol inh intensity for nos. 61–70: 104, 109, 113, 100, 110, 95, 110, 110, 107, 101

# (more compounds)
# Every second line gives: PV pol inh, PV pol inh intensity
71. Cc1cccc(OCC(=O)Nc2ccc3nc(SCc4ccccc4)sc3c2)c1
    109, 97
72. Cc1ccc(Cl)cc1NC(=O)N1CCC(CN2CCCCCC2)CC1
    116, 113
73. Cc1c(Cl)cccc1NC(=O)C1CCCN(C(=O)c2cnn(-c3ccccc3)c2-n2cccc2)C1 (stereo unspecified)
    108, 112
74. COc1cc(OC)cc(C(=O)Oc2c(Sc3ccccc3)c(C)nn2C(C)(C)C)c1
    96, 91
75. CC(=O)c1cc(-c2ccc(F)cc2)n(CCC(=O)Nc2nc3c(C)cccc3s2)c1C
    109, 108
76. CCOC(=O)Cc1ccc(NC(=O)Nc2nnc(N3CCCCC3C)s2)cc1 (stereo unspecified)
    112, 116
77. Cc1cc2oc(=O)c(CC(=O)NCCc3ccccc3)c(C)c2c2occ(C(C)(C)C)c12
    109, 105
78. COc1ccc(NC(=O)Cn2c(=O)n(-c3ccc(Cl)cc3)c(=O)c3c(C)c(C(=O)N(C)C)sc32)cc1Cl
    104, 108
79. CCn1c(=O)c2cc(C(=O)Nc3cc(C)c(Cl)cc3OC)sc2c2ccccc21
    107, 110
80. COc1cc(C(=O)Nc2ccc(-c3nc4ccccc4o3)c(O)c2)cc(OC)c1OC
    103, 105
81. COc1cc(NS(=O)(=O)c2ccc(NC(=O)c3ccc(OC)c(Br)c3)cc2)nc(OC)n1
    101, 105
82. COc1ccc(Oc2nc3c(c(=O)n(Cc4ccc(Br)cc4)c(=O)n3C)n2C)cc1
    108, 109
83. CCc1nn(CC(=O)NC(C)CC)c(=O)c2cc3c(OC)cccc3n12 (stereo unspecified)
    107, 102
84. CCOc1ccc(CNC(=O)C2CCCN(c3nn4cc(-c5ccc(OC)cc5)nc4s3)C2)cc1 (stereo unspecified)
    102, 104
85. O=C(CSc1nc(=O)[nH]c2c1CCC2)NCc1ccc(F)cc1
    109, 102
86. Cc1ccc(-n2ncc3c(N(CC(C)C)CC(C)C)ncnc32)c(C)c1
    100, 105
87. Cc1ccc2c(c1C)NC(=O)CC2c1ccc(Cl)cc1Cl (stereo unspecified)
    102, 104
88. CSc1ncc(C(=O)NCc2ccccc2F)c(-c2ccccc2)n1
    102, 87
89. Cc1ccc2oc(C(=O)Nc3ccc(S(=O)(=O)Nc4nc(C)cc(C)n4)cc3)cc(=O)c2c1
    98, 89
90. CCc1ccc(CNC(=O)c2nn(-c3ccc(C)cc3)c(=O)c3c2c2ccccc2n3C)cc1
    99, 98
